Marburg entry inh: blocks Marburg virus binding to or entry into cells; Marburg virus pseudotyped entry inhibition, cell reporter; control for the full effect not named in the record; about a third of the inactives were read at about 46 µM; Potency, µM (series often up to 37.8 µM), for inactives: top-dose activity change, negative = inhibition, most hits filed as inhibitors; hit rate 1.8% among 300,000; AID 540276; active = well fitted inhibition curve with a large enough effect; inconclusive = small, poorly fitted or top-dose-only effect, or effect the other way; inactive = flat fitted curve, though single readings scatter; tested in HEK293 cells; about a fifth of its hits are not listed in these tables; also: % is scaled to controls: 0 for no effect and ±100 for the full control effect; luciferase read-out
SARS PLpro yeast: SARS-CoV PLP inhibition in yeast | S. cerevisiae expressing SARS-CoV PLpro, growth rescue; control for the full effect not named in the record | Potency, µM (titrated, usually from 32.9 µM), inactives show at the highest dose activity, positive = growth rescue | hit rate 0.19% among 330,000 | AID 485353; also: 0% is about no effect; nearly all actives have a fitted effect of over 55% in size; growth read by luminescence after 48 h
Lassa entry inh: blocks Lassa virus binding to or entry into cells; Potency, µM (top dose mostly 37.9 µM), for the others: at the highest dose activity change, negative = inhibition, actives largely listed as inhibitors; Lassa virus pseudotype entry inhibition, cell reporter; control for the full effect not named in the record; hit rate 1.2% among 300,000; active means well fitted inhibition curve with a large enough effect; inconclusive means small, poorly fitted or top-dose-only effect, or effect the other way; inactive means flat fitted curve, though single readings scatter; tested in HEK293 cells; also: % is scaled to controls: 0 for no effect and ±100 for the full control effect; nearly all actives have a fitted effect of over 50% in size; luciferase read-out
RE007 growth inh: less growth of the S. pombe RE007 Vpr strain | S. pombe RE007 Vpr strain, BacTiter-Glo ATP luminescence, 24 h; control for the full effect not named in the record | Potency, µM (series often up to 92.2 µM), for inactives: at the highest dose activity change, negative = less growth | hit rate 0.21% among 360,000 | AID 651644; active = well fitted falling curve with a large enough effect; inconclusive = small, poorly fitted or top-dose-only effect; inactive = no such curve, though single readings can be large or run the other way;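 also: % is scaled to controls: 0 for no effect and ±100 for the full control effect; nearly all actives have a fitted effect of over 50% in size; the assay follows cell death caused by Vpr and the record does not say whether a fall means rescue or toxicity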
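Fission yeast strain RE007, carrying one chromosomally integrated HIV-1 vpr copy, was seeded at OD 0.01 in PMG+AL medium with 23 nL pinned compound. After 24 h at 30 °C and 99% humidity, viability was read by BacTiter-Glo luminescence.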
Cruzain noTriton: cruzain (T. cruzi) inhibition without detergent; purified cruzain, Z-FR-AMC fluorescence, no detergent; Potency, µM, for the others: max response, negative = inhibition, actives largely listed as inhibitors; hit rate 2.3% among 200,000; AID 1476; active = well fitted curve in the direction sought with a large enough effect; inconclusive = small, poorly fitted or top-dose-only effect, or another doubt; inactive = no such curve, though single readings can be large; an effect the other way counts as inactive or inconclusive;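 also: plate controls were enzyme without inhibitor for no effect and buffer without enzyme for full effect; nearly all actives have a fitted effect of over 40% in size; top concentration of the series not given in the record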
Target sequence (P25779 123-467 limits assumed): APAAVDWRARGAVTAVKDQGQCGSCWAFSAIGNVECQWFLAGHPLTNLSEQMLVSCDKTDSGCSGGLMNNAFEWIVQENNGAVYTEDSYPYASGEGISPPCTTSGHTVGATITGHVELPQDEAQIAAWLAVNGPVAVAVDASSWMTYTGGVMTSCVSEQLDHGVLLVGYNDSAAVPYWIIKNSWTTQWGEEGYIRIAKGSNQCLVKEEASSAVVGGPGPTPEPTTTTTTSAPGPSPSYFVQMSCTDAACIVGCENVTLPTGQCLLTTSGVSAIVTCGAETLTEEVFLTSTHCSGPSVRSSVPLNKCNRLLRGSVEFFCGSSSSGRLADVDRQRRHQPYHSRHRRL
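Purified cruzain at 1.5 nM, pre-incubated 15 min with compound at room temperature in 100 mM sodium acetate pH 5.5, 5 mM DTT, 0.00005% Triton X-100. Reaction started with 2 uM Z-FR-AMC; AMC fluorescence increase over 60 s gives rate.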
NS1 inh: blocks influenza NS1 protein function. S. cerevisiae slowed by influenza A NS1, growth recovery by OD600. Potency, µM (series often up to 46.1 µM), without a hit: top-dose activity, positive = more growth. hit rate 0.4% among 270,000. AID 2326; also: actives are rising curves; nearly all actives have a fitted effect of over 50% in size
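Read-out: OD600 growth recovery of NS1-expressing budding yeast. Cells grown overnight at 30C in -URA glucose medium, washed, resuspended and diluted 1:100 in 2% galactose assay medium, pH 6.0. Same strain lacking NS1 served as positive control.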
2A StopGo: FMDV 2A StopGo reporter, luciferase signal. AID 1159524. human cells with a luciferase reporter of 2A StopGo recoding; control for the full effect not named in the record. Potency, µM (highest dose often 57.9 µM), inactives show top-dose signal change, negative = less light. hit rate 1.2% among 410,000; active = well fitted falling curve with a large enough effect; inconclusive = small, poorly fitted or top-dose-only effect; inactive = no such curve, though single readings can be large or run the other way; tested in HEK293T cells; also: % is scaled to controls: 0 for no effect and ±100 for the full control effect; nearly all actives have a fitted effect of over 45% in size; luciferase light after 4 h
Cruzain inh Det: blocks cruzain activity in presence of Triton detergent; P25779; purified cruzain, Z-FR-AMC fluorescence, 0.01% Triton; Potency, µM, for the others: max response, negative = inhibition, most hits filed as inhibitors; hit rate 0.43% among 200,000; AID 1478; active = well fitted curve in the direction sought with a large enough effect; inconclusive = small, poorly fitted or top-dose-only effect, or another doubt; inactive = no such curve, though single readings can be large; an effect the other way counts as inactive or inconclusive;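 also: plate controls were neutral wells for no effect and buffer without enzyme for full effect; nearly all actives have a fitted effect of over 40% in size; top concentration of the series not given in the record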
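Detergent-containing arm of a paired screen for aggregation-based inhibition: 0.01% Triton X-100 present. Cruzain at 1.5 nM cleaved 2 uM Z-FR-AMC at pH 5.5 with 5 mM DTT; AMC fluorescence gain over 60 s measured activity.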
An asterisk follows results filed as active; [ ] = dose if it differs, or a comment. Unless noted, calls follow the shape of the dose curve; as a rule, active means well fitted rising curve with a large enough effect; inconclusive means small, poorly fitted or top-dose-only effect; inactive means no such curve, though single readings can be large or run the other way. Potency is read from the fitted curve at half-maximal effect. Rows were taken by chance, and some 4.7% of all compounds hit somewhere here.

What do the screens show for `O=C1CCCc2c1nc(-c1ccc(F)cc1)n2O`?
Marburg entry inh: -18%; SARS PLpro yeast: 0%; Lassa entry inh: 7%; RE007 growth inh: -1%; NS1 inh: 4%; 2A StopGo: 4%

Results for O=C(c1ccccc1)N1CCN(C(=O)c2ccccc2)C1c1ccccc1 ?
Marburg entry inh: inconclusive; SARS PLpro yeast: 7%; Lassa entry inh: inconclusive; RE007 growth inh: 22%; Cruzain noTriton: 0%; NS1 inh: -1%; 2A StopGo: -16%; Cruzain inh Det: 0.9%

What do the screens show for `CN(Cc1ccccc1)S(=O)(=O)c1ccc(Cl)c(C(=O)NCCCN2CCCC2=O)c1`?
Marburg entry inh: 2%[46.1 µM]; Lassa entry inh: 13%; RE007 growth inh: 0%; 2A StopGo: 0%

Results for CN(C)c1ccc(/C=N/NC(=O)CNC(=O)c2ccncc2)cc1 ?
SARS PLpro yeast: 1%; RE007 growth inh: -5%; NS1 inh: -41%; 2A StopGo: -1%

How did CCOC(=O)c1cnc2c(C(=O)OC)cccc2c1NCc1cccnc1 do in these assays?
Marburg entry inh: -15%; SARS PLpro yeast: 0%; Lassa entry inh: -3%; RE007 growth inh: -5%; NS1 inh: 7%; 2A StopGo: -7%

Results for N#CCSc1n[nH]c2nc3c(c(=O)n12)C1(CCCC1)Cc1ccccc1-3 ?
Marburg entry inh: 2%; SARS PLpro yeast: 7%; Lassa entry inh: -2%; RE007 growth inh: 10%; Cruzain noTriton: -20%; NS1 inh: -2%; 2A StopGo: inconclusive; Cruzain inh Det: -4.5%

Results for CSCCC(NC(=O)c1ccccc1Br)C(=O)N1CCCCCCC1 (stereo not drawn) ?
Marburg entry inh: 1%; SARS PLpro yeast: 1%; Lassa entry inh: -11%; RE007 growth inh: -8%; 2A StopGo: -2%

What do the screens show for `O=C(NCCNC(=O)c1cccnc1)c1ccc(Br)cc1`?
Marburg entry inh: -9%[46.1 µM]; SARS PLpro yeast: -1%; Lassa entry inh: inconclusive; RE007 growth inh: 4%; NS1 inh: 1%; 2A StopGo: -3%

How did O=C(c1cccs1)N1CCN(c2nnc(-c3ccccc3)c3ccccc23)CC1 do in these assays?
Marburg entry inh: inconclusive; SARS PLpro yeast: -3%; RE007 growth inh: 38%; NS1 inh: -38%; 2A StopGo: inconclusive

What do the screens show for `CCOC(=O)C1=C(C)Nc2nnnn2C1c1c[nH]c2ccccc12` (stereo not drawn)?
Marburg entry inh: 1%; SARS PLpro yeast: 10%; Cruzain noTriton: -7%; NS1 inh: 20%; Cruzain inh Det: -2.9%

Results for CCOC(=O)CC(=O)Nc1ccsc1C(N)=O ?
Marburg entry inh: -7%[46.1 µM]; SARS PLpro yeast: -1%; Lassa entry inh: 4%; RE007 growth inh: -12%; NS1 inh: -1%; 2A StopGo: 6%

How did CC12CC3(C)CC(C)(C1)CC(C(=O)NCC(=O)O)(C2)C3 do in these assays?
Marburg entry inh: 23%[46.1 µM]; SARS PLpro yeast: 1%; Lassa entry inh: 0%; RE007 growth inh: 8%; NS1 inh: 4%; 2A StopGo: -15%

What do the screens show for `CSCCC(=O)N1CCC(n2nccc2NC(=O)CCc2ccccc2)CC1`?
Marburg entry inh: 19%; SARS PLpro yeast: -1%; Lassa entry inh: 7%; RE007 growth inh: -17%; NS1 inh: 11%; 2A StopGo: -11%

Results for O=C1CN(C(=O)c2ccccc2Cl)c2ccccc2N1 ?
Marburg entry inh: -9%; SARS PLpro yeast: -1%; Lassa entry inh: -30%; RE007 growth inh: -3%; NS1 inh: 18%; 2A StopGo: -27%

Results for COc1ccc(-c2nc(C#N)c(NCCCN(C)C)o2)cc1OC ?
Marburg entry inh: -18%; SARS PLpro yeast: 2%; Lassa entry inh: -5%; RE007 growth inh: -9%; Cruzain noTriton: -5%; NS1 inh: 8%; Cruzain inh Det: -7.0%

What do the screens show for `C/C(=N\NC(N)=O)c1cc(Cl)cc(Cl)c1O`?
Marburg entry inh: 7%[46.1 µM]; SARS PLpro yeast: -4%; Lassa entry inh: 5%[46.1 µM]; RE007 growth inh: -9%; NS1 inh: -3%; 2A StopGo: 17%

How did Cc1ccc(C(=O)Oc2ccccc2C(=O)N2CCOCC2)cc1 do in these assays?
Marburg entry inh: -28%; SARS PLpro yeast: -8%; Lassa entry inh: 4%; RE007 growth inh: -14%; Cruzain noTriton: -7%; NS1 inh: -7%; 2A StopGo: 0%; Cruzain inh Det: 0.7%

What do the screens show for `C/C(=C1/SC(N2CCCC2)=NC1=O)c1ccc(Br)cc1`?
Marburg entry inh: 4.5µM*; SARS PLpro yeast: -5%; Lassa entry inh: 4.5µM*; RE007 growth inh: 16%; Cruzain noTriton: 4%; NS1 inh: -30%; 2A StopGo: -29%; Cruzain inh Det: -3.0%

Results for Cc1cccc(C)c1-n1c(C)cc(/C=N/NC(=O)c2ccncc2)c1C ?
Marburg entry inh: 1%; SARS PLpro yeast: 1%; Lassa entry inh: 8%; RE007 growth inh: 18%; Cruzain noTriton: 5%; NS1 inh: -15%; 2A StopGo: -16%; Cruzain inh Det: -4.9%

Results for COc1cc(C(C[N+](=O)[O-])c2c(C)[nH]c3ccccc23)cc(OC)c1OC (stereo not drawn) ?
Marburg entry inh: inconclusive; SARS PLpro yeast: -1%; Lassa entry inh: 3%; RE007 growth inh: -7%; Cruzain noTriton: -3%; NS1 inh: -11%; 2A StopGo: -26%; Cruzain inh Det: -4.2%

What do the screens show for `O=C(COC(=O)Cc1ccc(Br)cc1)NC1CC1`?
Marburg entry inh: -4%; SARS PLpro yeast: -5%; Lassa entry inh: 9%; RE007 growth inh: -5%; 2A StopGo: -25%

What do the screens show for `O=C(/C=C\c1ccc(-c2ccccc2)o1)c1ccccc1`?
Marburg entry inh: inconclusive; SARS PLpro yeast: 8%; Lassa entry inh: inconclusive; RE007 growth inh: 6%; Cruzain noTriton: -12%; NS1 inh: -1%; 2A StopGo: 7%; Cruzain inh Det: -18%

What do the screens show for `COc1cc(/C=C\C(=O)O)cc(S(=O)(=O)N2CCCCCC2)c1OC`?
SARS PLpro yeast: -2%; RE007 growth inh: -8%; NS1 inh: 24%; 2A StopGo: 11%

How did O=C1[C@@H]2[C@H](C(=O)N1n1cnnc1)[C@H]1C=C[C@@H]2C1 do in these assays?
Marburg entry inh: 2%; SARS PLpro yeast: -2%; Lassa entry inh: 13%; RE007 growth inh: -10%; Cruzain noTriton: 8%; NS1 inh: -5%; 2A StopGo: 5%; Cruzain inh Det: 4.8%

What do the screens show for `Cc1cc(C)nc(NS(=O)(=O)c2ccc(NC(=S)NC(=O)C(C)(C)C)cc2)n1`?
Marburg entry inh: 4%; SARS PLpro yeast: 4%; Lassa entry inh: -9%; RE007 growth inh: -22%; Cruzain noTriton: 3%; NS1 inh: -9%; 2A StopGo: 112%[activator]; Cruzain inh Det: 3.8%

How did C=CC(=O)OCCO do in these assays?
Marburg entry inh: 4%[46.1 µM]; Lassa entry inh: -3%; RE007 growth inh: -11%; Cruzain noTriton: -6%; 2A StopGo: -11%; Cruzain inh Det: 2.5%

Results for COCCNC(=S)N1CCN(c2nc(-c3ccc(F)cc3)cs2)CC1 ?
SARS PLpro yeast: -1%; RE007 growth inh: 1%; NS1 inh: 20%; 2A StopGo: -10%

Results for COc1ccc(OC)c(CC(=O)O)c1 ?
Marburg entry inh: 2%; SARS PLpro yeast: 0%; Lassa entry inh: 8%; RE007 growth inh: 6%; Cruzain noTriton: 5%; NS1 inh: 0%; 2A StopGo: 7%; Cruzain inh Det: 6.1%

How did Cc1cccc(NC(=O)c2nc[nH]c2C(=O)Nc2cccc(C)c2)c1 do in these assays?
Marburg entry inh: 8%[46.1 µM]; SARS PLpro yeast: 1%; RE007 growth inh: -6%; 2A StopGo: 3%

Results for CCCOC(=O)c1ccc(NC(=O)CCC(=O)OCC)cc1 ?
Marburg entry inh: inconclusive; SARS PLpro yeast: -3%; Lassa entry inh: 29%; RE007 growth inh: -13%; Cruzain noTriton: -8%; NS1 inh: -89%; 2A StopGo: 42%[activator]; Cruzain inh Det: -0.8%

What do the screens show for `COc1ccc(-n2nc(-c3ccc(C)cc3)c3cnc4cc(F)c(F)cc4c32)cc1`?
Marburg entry inh: -2%[46.1 µM]; Lassa entry inh: 3%[46.1 µM]; Cruzain noTriton: -10%; 2A StopGo: -20%; Cruzain inh Det: -1.7%

What do the screens show for `O=C(Cc1cccs1)N1CCN(S(=O)(=O)c2cc(Cl)ccc2Cl)CC1`?
Marburg entry inh: inconclusive; SARS PLpro yeast: 8%; Lassa entry inh: -18%; RE007 growth inh: -6%; 2A StopGo: -24%

What do the screens show for `COc1ccc(C2C(C(=O)OC(C)C)=C(C)N=c3s/c(=C\c4cccs4)c(=O)n32)cc1` (stereo not drawn)?
Marburg entry inh: -4%[46.1 µM]; SARS PLpro yeast: inconclusive; Lassa entry inh: -13%; RE007 growth inh: 0%; Cruzain noTriton: inconclusive; NS1 inh: 11%; 2A StopGo: -16%; Cruzain inh Det: -2.4%

How did CCOc1ccc(N=Cc2c(O)n(Cc3ccccc3)c(=S)[nH]c2=O)cc1 do in these assays?
Marburg entry inh: 22%; SARS PLpro yeast: 1%; Lassa entry inh: inconclusive; RE007 growth inh: -15%; NS1 inh: 1%; 2A StopGo: 22%

Results for O=S(=O)(c1ccccc1)N1CCN=C1SCc1cccc(Cl)c1 ?
Marburg entry inh: inconclusive; SARS PLpro yeast: -8%; Lassa entry inh: inconclusive; RE007 growth inh: -9%; Cruzain noTriton: 7%; NS1 inh: -20%; 2A StopGo: -26%; Cruzain inh Det: -5.3%

What do the screens show for `O=C(c1ccncc1)C12CN3CN(CN(C3)C1)C2`?
Marburg entry inh: 6%[46.1 µM]; SARS PLpro yeast: 1%; Lassa entry inh: 0%; RE007 growth inh: -2%; Cruzain noTriton: 0%; NS1 inh: 3%; 2A StopGo: 6%; Cruzain inh Det: 3.0%

How did O=C(CNC(c1ccccc1)c1ccccc1)Nc1ccccc1F do in these assays?
Marburg entry inh: inconclusive; SARS PLpro yeast: -2%; Lassa entry inh: inconclusive; RE007 growth inh: 13%; NS1 inh: -12%; 2A StopGo: -10%

High-throughput results (PubChem BioAssay)
